VACV mCherry inh – inhibitors of vaccinia virus infection (mCherry reporter signal) | 310,000 compounds, 0.63% hits | Potency, µM (top dose mostly 36.5 µM), for inactives: top-dose activity change, negative = inhibition, actives largely listed as inhibitors | Vaccinia virus mCherry reporter infection, fluorescence; about a quarter of the inactives have no number; active = well fitted inhibition curve with a large enough effect; inconclusive = small, poorly fitted or top-dose-only effect; inactive = no such curve, though single readings can be large or run the other way; tested in A549 cells; further: nearly all actives have a fitted effect of over 35% in size; inactives centre near -10
VACV Venus inh – vaccinia inhibition (Venus reporter) | 330,000 compounds, 0.46% hits | Vaccinia virus Venus reporter expression, fluorescence | Potency, µM (top dose mostly 36.5 µM), without a hit: at the highest dose activity change, negative = inhibition, hits mostly inhibitors | AID 720580; active means well fitted inhibition curve with a large enough effect; inconclusive means small, poorly fitted or top-dose-only effect; inactive means no such curve, though single readings can be large or run the other way; tested in A549 cells; further: nearly all actives have a fitted effect of over 30% in size; inactives centre near -10
The depositor's hits bear a star. On the % scale 0 is the no-effect control and ±100 the full control effect; potency means the concentration at half of the fitted maximal effect.

Screening CCOc1cc(/C=N/NC(=O)CSc2nncn2C)ccc1OCc1cccc(C)c1 returned VACV mCherry inh inactive and VACV Venus inh -24.2%.
For CCOc1ccc(-c2csc(NC(=O)CSC3=NC(=O)CN3C(C)=O)n2)c2ccccc12 the results were VACV mCherry inh -21.1% and VACV Venus inh -17.0%.
`COc1cc(/C=C2\SC(=O)N(CC(=O)Nc3cccc(C)c3)C2=O)cc([N+](=O)[O-])c1O` gave VACV mCherry inh inactive and VACV Venus inh -7.1%.
COc1ccc(N2CCN(C(=O)CSc3ccc(C)cc3)CC2)cc1 was read as VACV mCherry inh -6.4% and VACV Venus inh -7.5%.
`CC(=O)OCCOc1nc(NC(C)C)nc(NC(C)C)n1` gave VACV mCherry inh -8.6% and VACV Venus inh -1.3%.
OCCOCCOc1ccccc1OCCOCCO was read as VACV mCherry inh -12.8% and VACV Venus inh 2.3%.
Screening O=C(NNC(=O)c1cc(OCC(F)(F)F)ccc1OCC(F)(F)F)c1cccc(C(F)(F)F)c1 returned VACV Venus inh -27.9%.
`COC(=O)[C@]12CCCCC=C1N(CCC1=CCCCC1)C(=O)[C@H](CC(=O)N1CCCC1)C2` gave VACV mCherry inh 29.1% and VACV Venus inh -1.5%.
For C/C(CC1(O)C(=O)N(C)c2ccccc21)=N\O (stereo not given) the results were VACV mCherry inh inactive and VACV Venus inh -2.4%.
`CN(C)c1cccc(C(=O)NCC2CCCO2)c1` (stereo not given) gave VACV Venus inh -10.0%.
`CCn1cc(C(=O)NC2CCCCC2C)c(=O)c2ccc(C)nc21` (stereo not given) gave VACV mCherry inh -8.7% and VACV Venus inh -2.3%.
`C=CCn1c(SC(C)C(=O)NCCC2=CCCCC2)nc2ccccc2c1=O` (stereo not given) gave VACV Venus inh -2.0%.
`COC(=O)CSc1nnc(SCc2ccc(OC)cc2)s1` gave VACV mCherry inh -9.8% and VACV Venus inh -2.0%.
For O=C(COC(=O)c1cc([N+](=O)[O-])ccc1NCCO)Nc1cccc(S(=O)(=O)N2CCCC2)c1 the results were VACV mCherry inh -16.5% and VACV Venus inh -0.3%.
`Nc1ncnc(N)c1NC(=O)c1ccc(OCc2ccccc2)cc1` gave VACV mCherry inh -11.7% and VACV Venus inh 2.6%.
CSc1ccccc1NC(=O)c1cc(Cl)sc1Cl was read as VACV mCherry inh -8.5% and VACV Venus inh -9.4%.
Cc1ccc(SCC(=O)NCc2ccncc2)cc1 was read as VACV mCherry inh -6.6% and VACV Venus inh -8.7%.
Screening CC(=O)N1CCC(N(Cc2ccc(C)o2)C(=O)Nc2ccc(C)cc2)CC1 returned VACV mCherry inh 2.5% and VACV Venus inh 11.6%.
`CNC(=S)N=Nc1c(O)[nH]c2ccc(C(C)C)cc12` gave VACV mCherry inh -11.2% and VACV Venus inh inconclusive.
O=C(Cc1n[nH]c(=O)c2ccccc12)OCC(=O)c1ccc(F)c(F)c1 was read as VACV mCherry inh -12.1% and VACV Venus inh -7.5%.
`COC(=O)C1=C(C)N(c2ccc(Br)cc2)C(=O)/C1=C\c1ccco1` gave VACV mCherry inh -19.2% and VACV Venus inh -8.7%.
Screening Cc1cnc(C(=O)Nc2nnc(C)s2)cn1 returned VACV mCherry inh -4.4% and VACV Venus inh -1.7%.
For Cn1c(=S)ccc2ccccc21 the results were VACV mCherry inh inactive and VACV Venus inh -3.1%.
`CC(NS(=O)(=O)c1ccccc1)C(c1cccs1)N1CCN(C)CC1` (stereo not given) gave VACV mCherry inh -13.8% and VACV Venus inh -13.6%.
For CS(=O)(=O)N(CC(=O)NCC1CCCO1)c1ccc(Cl)c(Cl)c1 (stereo not given) the results were VACV mCherry inh -16.6% and VACV Venus inh -15.7%.
Cc1cccc(NC(=S)NC23CN4CN(CN(C4)C2)C3)c1C was read as VACV mCherry inh inactive and VACV Venus inh -3.1%.
Screening CC(C)CCSc1nc2c(c(=O)[nH]c(=O)n2C)n1CCCc1ccccc1 returned VACV mCherry inh -26.1% and VACV Venus inh -25.8%.
For COC(=O)c1ccc(CSc2nnc(C)s2)cc1 the results were VACV mCherry inh -17.6% and VACV Venus inh -3.4%.
Screening OCCC1CN(CCCc2ccccc2)CCN1Cc1ccc(F)cc1 (stereo not given) returned VACV mCherry inh inactive and VACV Venus inh -7.2%.
Screening Cc1cccc2c(N3CCCC3)nc(CNS(=O)(=O)c3ccccc3Cl)nc12 returned VACV mCherry inh -6.2% and VACV Venus inh 2.8%.
`CC(=O)c1cccc(NC(=O)CSc2nnc3ccc(-c4ccc(Cl)cc4)nn23)c1` gave VACV mCherry inh -0.5% and VACV Venus inh -10.4%.
Screening COc1cc(CNC(=O)CCCC/C=C/C(C)C)ccc1O returned VACV mCherry inh -2.1% and VACV Venus inh inconclusive.
Screening CC(=NOC(=O)c1ccc(Cl)cc1)c1nccs1 returned VACV mCherry inh inactive and VACV Venus inh -2.6%.
For CCCS(=O)(=O)NC(=O)C1(C)CCN(C(=O)COc2ccc(Cl)cc2Cl)C1 (stereo not given) the results were VACV mCherry inh -4.4% and VACV Venus inh -0.5%.
CCOC(=O)/C(=C/c1ccc(OC(=O)c2ccncc2)cc1)C(C)=O was read as VACV mCherry inh -7.7% and VACV Venus inh -6.9%.
Screening CC(=O)C1CCC2C(CCC3=CC(=O)CCC32)C1 (stereo not given) returned VACV mCherry inh -18.1% and VACV Venus inh 5.2%.
CC(NC(=O)Nc1ccccc1O)(C(F)(F)F)C(F)(F)F was read as VACV mCherry inh -8.5% and VACV Venus inh -6.7%.
Screening Cc1[nH]c(=O)c(C#N)c2c1COC(C)(C)C2 returned VACV mCherry inh -6.4% and VACV Venus inh 8.2%.
COc1cc(C(=O)Oc2ccc(Br)cc2C(=S)N2CCOCC2)cc(OC)c1OC was read as VACV mCherry inh -24.0% and VACV Venus inh -13.9%.
`O=C(c1ccco1)N(Cc1cccnc1)C(c1ccccc1)c1nc2ccccc2[nH]1` (stereo not given) gave VACV mCherry inh 4.0% and VACV Venus inh 1.7%.
For CCCC(=O)N(Cc1cc2cccc(C)c2[nH]c1=O)c1ccccc1OC the results were VACV mCherry inh -5.0% and VACV Venus inh -10.8%.
Screening CCOC(=O)C1CCCN(C(=O)c2ccc(CS(=O)(=O)c3ccc(Br)cc3)o2)C1 (stereo not given) returned VACV mCherry inh inactive and VACV Venus inh -5.8%.
COc1ccc(CNC(=O)COC(=O)c2cc(C)oc2C)cc1 was read as VACV mCherry inh inactive and VACV Venus inh -9.7%.
`Cc1ccc(C)c(OCCC(=O)OCC(=O)c2c(N)n(C)c(=O)n(C)c2=O)c1` gave VACV mCherry inh -17.9% and VACV Venus inh 0.9%.
CC(C)C(=O)Nc1ccc(C(=O)Nc2ccc(Br)cc2F)cc1 was read as VACV mCherry inh -12.7% and VACV Venus inh -11.1%.
Screening Cc1ccc(S(=O)(=O)N2CCCCC2)cc1C(=O)N1CCCC1 returned VACV mCherry inh inactive and VACV Venus inh -9.7%.
For O=[N+]([O-])c1cc(C(F)(F)F)ccc1N1CCC(O)CC1 the results were VACV mCherry inh -16.5% and VACV Venus inh -5.8%.
`CCCCCCCCCCCC(=O)NC(C(=O)O)C(O)c1ccccc1` (stereo not given) gave VACV mCherry inh -3.5% and VACV Venus inh -22.3%.

Next section (two carried over from the part before).
For O=[N+]([O-])c1cc(C(F)(F)F)ccc1N1CCC(O)CC1 the results were VACV mCherry inh -16.5% and VACV Venus inh -5.8%.
`CCCCCCCCCCCC(=O)NC(C(=O)O)C(O)c1ccccc1` (stereo not given) gave VACV mCherry inh -3.5% and VACV Venus inh -22.3%.
`COc1ccc(S(=O)(=O)NCC(c2cccnc2)N2CCN(Cc3ccccc3)CC2)cc1C` (stereo not given) gave VACV mCherry inh inactive and VACV Venus inh -24.6%.
For Cc1ccc(CN2C(=O)N(c3ccc(F)cc3)C(=O)C2CC(=O)Nc2ccc(Cl)cc2)cc1 (stereo not given) the results were VACV mCherry inh -17.0% and VACV Venus inh -20.8%.
Screening Cc1c(C(=O)NCc2ccccc2C(F)(F)F)sc(=O)n1Cc1ccc(S(=O)(=O)N(C)C)cc1 returned VACV mCherry inh -9.8% and VACV Venus inh -21.8%.
`Cc1cccc(N2CCN(CC(=O)NCC3CCCCC3)CC2)c1C` gave VACV mCherry inh inactive and VACV Venus inh -10.3%.
For CCCCNc1nc2c(S(=O)(=O)c3ccccc3)nnn2c2ccccc12 the results were VACV mCherry inh -2.4% and VACV Venus inh 1.4%.
CCOC(=O)Cc1csc(NC(=O)CSc2ncnc3c2cnn3-c2ccc(OC)cc2)n1 was read as VACV mCherry inh inactive and VACV Venus inh -25.7%.
CCCN(CCC)c1ncnc2c1cnn2-c1ccc(OC)cc1 was read as VACV mCherry inh -14.1% and VACV Venus inh -12.3%.
For Cc1cc(C)n(C(=O)c2ccc(C)o2)n1 the results were VACV mCherry inh -13.4% and VACV Venus inh -15.1%.
Screening Cc1ccccc1Cn1c(=O)c2c(nc3n2CCN3Cc2ccco2)n(C)c1=O returned VACV mCherry inh 6.3% and VACV Venus inh -6.4%.
Screening CC1(C)CC(=O)c2c(oc3c(Cl)cc(NS(=O)(=O)c4ccc(Cl)cc4)cc23)C1 returned VACV mCherry inh -5.1% and VACV Venus inh -3.2%.
For O=C(CSc1nnc(-c2ccccc2)o1)NC1CCCCC1 the results were VACV mCherry inh -23.3% and VACV Venus inh -10.6%.
CCCCOc1ccc(C(C)NC(=O)CCS(=O)(=O)Cc2ccc(C)cc2)cc1 (stereo not given) was read as VACV mCherry inh -21.7% and VACV Venus inh -19.4%.
`Cc1ccc(Cl)cc1N1CCN(C(=O)Cc2ccc(-n3c(=O)[nH]c4ccsc4c3=O)cc2)CC1` gave VACV mCherry inh -25.8% and VACV Venus inh -14.0%.
Screening Cc1c(C(=O)N(Cc2ccco2)Cc2ccccc2Cl)oc2ccc(F)cc12 returned VACV mCherry inh -7.1% and VACV Venus inh -3.9%.
`CCn1c(C)nc2cc(S(=O)(=O)C(F)(F)F)ccc21` gave VACV Venus inh -19.3%.
`Cc1ccc(C(=O)Nc2nc3n(n2)C(c2ccc(F)cc2)C=C(c2ccccc2)N3)cc1` (stereo not given) gave VACV mCherry inh -19.9% and VACV Venus inh -12.9%.
For CC(=O)Oc1c(C)c2c3c(c1OC(C)=O)[C@@H](C)CC[C@@H]3[C@@H](C)C[C@H]2C=C(C)C the results were VACV mCherry inh -21.3% and VACV Venus inh -24.1%.
For Cc1ccc(-n2ncc(C(=O)NCCc3ccccc3)c2C2CCN(C(=O)OC(C)(C)C)CC2)c(C)c1 the results were VACV mCherry inh -4.2% and VACV Venus inh -5.4%.
Screening Cc1ccc(NC(=O)Cn2nnc(C(=O)NCc3ccc4c(c3)OCO4)c2N)cc1 returned VACV mCherry inh -11.5% and VACV Venus inh -5.7%.
`CC(C)C(=O)NC(C)c1nnc2n1CCN(Cc1cccc3ncccc13)CC2` (stereo not given) gave VACV mCherry inh -1.2% and VACV Venus inh -1.1%.
COc1ccc([C@@H]2CC=C(C(=O)O)[C@H](c3ccc(Cl)cc3)N2S(=O)(=O)c2ccc(Cl)cc2)cc1 was read as VACV mCherry inh -12.6% and VACV Venus inh -4.8%.
CCOC(=O)Cc1csc(NS(=O)(=O)c2ccc(Cl)cc2)n1 was read as VACV mCherry inh inactive and VACV Venus inh 1.6%.
Screening Cc1cc(C)nc(SCC(=O)Nc2ncc(C(F)(F)F)cc2Cl)n1 returned VACV mCherry inh -8.4% and VACV Venus inh -3.6%.
For Cc1cc(NC(=O)c2ccccc2Cl)n(C(C)(C)C)n1 the results were VACV mCherry inh -6.9% and VACV Venus inh -7.4%.

Pulled by structure from above, four records:
COc1ccc([C@@H]2CC=C(C(=O)O)[C@H](c3ccc(Cl)cc3)N2S(=O)(=O)c2ccc(Cl)cc2)cc1 was read as VACV mCherry inh -12.6% and VACV Venus inh -4.8%.
Screening Cc1c(C(=O)N(Cc2ccco2)Cc2ccccc2Cl)oc2ccc(F)cc12 returned VACV mCherry inh -7.1% and VACV Venus inh -3.9%.
`CCn1c(C)nc2cc(S(=O)(=O)C(F)(F)F)ccc21` gave VACV Venus inh -19.3%.
For Cc1cc(NC(=O)c2ccccc2Cl)n(C(C)(C)C)n1 the results were VACV mCherry inh -6.9% and VACV Venus inh -7.4%.

Carrying on:
`Cc1ccnc(NC(c2cccnc2)c2ccc3cccnc3c2O)c1` (stereo not given) gave VACV mCherry inh inconclusive and VACV Venus inh inconclusive.
`COC(=O)CSc1nc(SCc2ccc(C)cc2)nc2c1CCCC2` gave VACV mCherry inh inactive and VACV Venus inh -13.7%.
Screening COc1ccc(OC)c(C(=O)COC(=O)COc2ccccc2F)c1 returned VACV mCherry inh -9.9% and VACV Venus inh -4.8%.
`CCCCNC(=O)CCSc1ccc(C)cc1` gave VACV mCherry inh -20.3% and VACV Venus inh -14.0%.
Screening CS(=O)(=O)c1ccc(CNC(=O)C2(C(F)(F)F)C/C(=C\Cc3ccccc3)CCCO2)cc1 (stereo not given) returned VACV mCherry inh inactive and VACV Venus inh -23.5%.
For NC(=O)N=Nc1c2[nH]c3ccccc3nc-2c2ccccc12 the results were VACV mCherry inh inactive and VACV Venus inh -11.7%.
Screening COc1ccc(-n2nc(C(=O)NCC(=O)N3CCCCCC3)c3ccccc3c2=O)c(OC)c1 returned VACV mCherry inh -15.2% and VACV Venus inh -8.1%.

3 consecutive entries from above, for reference:
`Cc1ccnc(NC(c2cccnc2)c2ccc3cccnc3c2O)c1` (stereo not given) gave VACV mCherry inh inconclusive and VACV Venus inh inconclusive.
`COC(=O)CSc1nc(SCc2ccc(C)cc2)nc2c1CCCC2` gave VACV mCherry inh inactive and VACV Venus inh -13.7%.
Screening COc1ccc(OC)c(C(=O)COC(=O)COc2ccccc2F)c1 returned VACV mCherry inh -9.9% and VACV Venus inh -4.8%.

Screening data (PubChem)
